Screens as filed in PubChem.
RVFV N-RNA FP – blocks Rift Valley Fever Virus nucleoprotein binding to RNA. P21700. RVFV N-RNA binding, fluorescence polarization; active compounds read low. % bound, % (concentration not given with the values). 20,000 tested, 0.1% active. AID 651828;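 active = between 0 and 58% in either replicate with normal brightness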;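 note: 100 nL library stock added to about 12 µL; 100% = protein and probe without compound and 0% = probe alone; numbers are from one replicate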
Target sequence (P21700 whole entry, looked up): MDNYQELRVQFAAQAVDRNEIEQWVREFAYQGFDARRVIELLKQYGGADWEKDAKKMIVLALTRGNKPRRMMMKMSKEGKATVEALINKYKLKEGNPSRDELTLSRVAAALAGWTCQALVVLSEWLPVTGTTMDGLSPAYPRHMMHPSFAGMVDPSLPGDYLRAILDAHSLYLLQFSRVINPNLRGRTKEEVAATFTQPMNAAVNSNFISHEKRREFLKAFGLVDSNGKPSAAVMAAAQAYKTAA
An asterisk follows results filed as active; & = joins results of further samples. The list is partial (hit frequency here may not be typical).

SMILES | RVFV N-RNA FP
Cc1cc(-c2onc(C)c2-c2noc(C)n2)no1 | 90.2
CC(O)C(O)(c1ccccc1)c1ccccc1 (stereo not given) | 85.5
O=C(CSc1nc2ccccc2s1)c1cc2ccccc2o1 | 92.4
CSc1nc2ccc(I)cc2c(=O)n1C | 103.0
O=c1c2cnn(CCO)c2ncn1Cc1ccc(C(F)(F)F)cc1 | 99.9
CCCC1O[C@@H]2C[C@H]3[C@@H]4CCC5=CC(=O)C=C[C@]5(C)[C@H]4[C@@H](O)C[C@]3(C)[C@]2(C(=O)CO)O1 (stereo not given in full) | 92.6&95.5
Cc1ccccc1C(=O)NC(=S)NC1CCSC1=O (stereo not given) | 94.2
COc1ccc2[nH]c3c(c2c1)CCNC3 | 104.7
Cc1nn(-c2cc(C(F)(F)F)ccc2Cl)c(=O)c2noc(C)c12 | 91.7
O=c1c2c(nc3n1CCC3)sc1c(O)c(Br)ccc12 | 111.2
Cc1cc(N2CCCC2)nc(-n2nc(C)cc2C)n1 | 91.2
CCn1cc(CN(C)C(=S)Nc2ccc(Br)cc2Cl)c(C)n1 | 90.5
CS(=O)(=O)c1ccc2ccn(O)c2c1 | 102.0
Cn1nc(-c2ccccc2)ccc1=O | 90.2
CCCC(C)C(=O)Nc1ccc(-c2nc3ccccc3o2)cc1 (stereo not given) | 99.0
CCCCOCCOCCOCc1cc2c(cc1CCC)OCO2 | 112.1
CCN1CCN(C(=O)N[C@@H](C(=O)N[C@@H]2C(=O)N3[C@@H]2SC(C)(C)[C@@H]3C(=O)O)c2ccccc2)C(=O)C1=O | 91.0&97.8
COc1cc(C(=O)NC(C)C(=O)NN)cc(OC)c1OC (stereo not given) | 95.7
c1nnnn1CC1CCOCO1 (stereo not given) | 94.0
COc1ccc(Cl)cc1NC(=O)NCC1CCN(C(=O)OC(C)(C)C)CC1 | 107.0
O=C(Nc1cccc(NC(=S)NC(=O)c2cccc3c(Br)cccc23)c1)c1ccco1 | 82.9
COC(=O)CNC(=O)Cc1c(F)cccc1Cl | 91.9
CS(=O)(=O)Cc1ccccc1 | 97.7
CCN(CC(=O)NC)S(=O)(=O)c1ccccc1 | 97.4
CCOC(=O)c1c(/N=C/c2nc(-c3ccco3)oc2O)sc2c1CCC2 | 97.9

(cont.)
SMILES | RVFV N-RNA FP
CCCCNC(=O)Nc1ccccc1Oc1ccccc1 | 99.7
NC(=O)N/N=C/c1cccs1 | 95.1
COC(=O)c1ccc2c(c1)C(=O)N(C1CCCCC1)C2=O | 112.4
O/N=C1/C2CC3C1C14CC(C2/C1=N\O)C34 (stereo not given) | 96.2
COC(=O)c1ccc(N2C(=O)CC(SCCc3nc4ccccc4[nH]3)C2=O)cc1 (stereo not given) | 99.3
O=C(Nc1ccc(N2CCN(C(=O)c3ccccc3)CC2)cc1)c1ccccc1 | 91.9
N=C(N)c1ccc(N)cc1 | 100.3
CCCN1CCC(N2CCC(O)CC2)CC1 | 90.4
CC(=O)Oc1ccc2occ(C(=O)c3ccc(Cl)cc3)c2c1 | 95.9
CC(CNC(C)c1ccccc1)C(=O)O (stereo not given) | 100.5
CCOC(=O)c1c[nH]c2cc(F)cc(F)c2c1=O | 89.3
Cc1cc(C)c2c(n1)sc1c(=S)nc[nH]c12 | 99.3
COc1cccc(C(=O)NNc2cc(C(F)(F)F)ccn2)c1 | 83.9
CCCCCCCC/C=C\CCCCCCCC(=O)NCCc1ccc(O)c(O)c1 | 96.6
COC(CNC(=O)c1c(O)nc2ccccn2c1=O)OC | 98.5
Cc1ccc(C(C)C)c(OCCn2ccnc2)c1 | 105.0
COc1ccc(CCN(C)C/C=C/c2ccc(N(C)C)cc2)cc1OC | 100.5
CCOc1cc(CN2CCCCC2)ccc1OC | 93.8
O=C(O)/C=C/c1cc(Br)c(Br)c(Br)c1Br | 105.5
Nc1ccn(C2O[C@H](CO)[C@@H](O)C2(F)F)c(=O)n1 (stereo not given in full) | 94.8
O=c1[nH]c2ccc(Cl)cc2c(-c2ccccc2)c1N1CCN(Cc2ccc3c(c2)OCO3)CC1 | 97.4
N/C(=N\OCc1noc(-c2ccsc2)n1)c1ccc(C(F)(F)F)cc1 | 85.9
O=C(/C=C/c1cccs1)N1CCN(c2ccccc2)CC1 | 97.7
N#CC(C(=O)NCc1ccccc1)c1ccccc1 (stereo not given) | 98.0
CCC(=O)NC(=S)Nc1ccc2oc(-c3ccccc3Cl)nc2c1 | 97.3

(more compounds)
SMILES | RVFV N-RNA FP
CCN1/C(=N\N)c2cccc3cccc1c23 | 91.4
O=C1N=c2ccccc2=C1c1c(O)n(-c2cccc(F)c2)[nH]c1=O | 89.4
COc1cc2c(cc1NC(=O)CSc1nnc(Cc3cccs3)n1Cc1ccco1)oc1ccccc12 | 107.2
Cc1cc(-c2ccsc2)n[nH]c1=O | 96.6
COc1ccccc1OCC(O)CO (stereo not given) | 102.0
O=C(CSc1nc(N2CCCCC2)nc(N2CCCCC2)n1)N1CCc2ccccc21 | 98.3
Cc1cnc(=O)[nH]c1SCc1cccc(C(F)(F)F)c1 | 91.8
COc1ccccc1C=NC12CN3CN(CN(C3)C1)C2 | 91.9
[N-]=[N+]=Nc1ccc(C(=O)CSC[C@H](NC(=O)CC[C@H](N)C(=O)O)C(=O)NCC(=O)O)cc1 | 97.2
OC1(C#CC#CC2(O)CCCCC2)CCCCC1 | 99.5
COc1ccc(NC(=S)N2CCN(Cc3c(C)nn(C)c3C)CC2)cc1OC | 101.5
CCCCN(C(=O)C1CCCO1)c1ccccc1 (stereo not given) | 93.8
CCOc1cccc(/C=N/NC(=O)c2ccncc2)c1O | 99.0
CCNc1nc(NC(C)C)nc(OCCOC(C)=O)n1 | 87.1
Brc1cccc(-c2cn3ccsc3n2)c1 | 106.2
S=c1[nH]nc(-c2ccncc2)n1-c1ccc2c(c1)OCCO2 | 92.8
Cn1nccc1NC(=O)c1ccc(Cl)c(Cl)c1 | 92.7
COC(=O)C1=C(C)NC(C)=C(C(=O)O[C@@H]2CCCN(Cc3ccccc3)C2)[C@@H]1c1cccc([N+](=O)[O-])c1 | 94.1
CCC(C)N(C(=O)c1c(F)c(F)c(F)c(F)c1F)C(C)CC (stereo not given) | 92.8
CCN(C(=O)C1CCC(C(=O)N(CC)c2ccccc2)CC1)c1ccccc1 (stereo not given) | 94.2
Cc1cc(NC(=O)CSCC(=O)O)n(C)n1 | 97.4
CCCC(=O)N(c1ccccc1)C1CC(C)Nc2ccccc21 (stereo not given) | 97.8
Cn1nc2c3c(cccc3c1=O)-c1ccccc1-2 | 97.1
O=c1c2ccccc2nc(-c2ccccc2)n1C1CCS(=O)(=O)C1 (stereo not given) | 96.9
Cc1ccc(NNC(=O)c2cccnc2Oc2ccccc2)cc1 | 96.9

Ordered by molar mass (falling): part of the list above
SMILES | RVFV N-RNA FP
COC(=O)C1=C(C)NC(C)=C(C(=O)O[C@@H]2CCCN(Cc3ccccc3)C2)[C@@H]1c1cccc([N+](=O)[O-])c1 | 94.1
COc1ccc(NC(=S)N2CCN(Cc3c(C)nn(C)c3C)CC2)cc1OC | 101.5
CCN(C(=O)C1CCC(C(=O)N(CC)c2ccccc2)CC1)c1ccccc1 (stereo not given) | 94.2
Cc1ccc(NNC(=O)c2cccnc2Oc2ccccc2)cc1 | 96.9
S=c1[nH]nc(-c2ccncc2)n1-c1ccc2c(c1)OCCO2 | 92.8
CCCC(=O)N(c1ccccc1)C1CC(C)Nc2ccccc21 (stereo not given) | 97.8
Cc1cnc(=O)[nH]c1SCc1cccc(C(F)(F)F)c1 | 91.8
CCOc1cccc(/C=N/NC(=O)c2ccncc2)c1O | 99.0
Cn1nccc1NC(=O)c1ccc(Cl)c(Cl)c1 | 92.7
Cc1cc(NC(=O)CSCC(=O)O)n(C)n1 | 97.4
Cn1nc2c3c(cccc3c1=O)-c1ccccc1-2 | 97.1
CCN1/C(=N\N)c2cccc3cccc1c23 | 91.4
COc1ccccc1OCC(O)CO (stereo not given) | 102.0
Cc1cc(-c2ccsc2)n[nH]c1=O | 96.6

Going on with the list.
SMILES | RVFV N-RNA FP
CC(Sc1nc2ccccc2[nH]1)c1nc2ccccc2c(=O)[nH]1 (stereo not given) | 91.8
CC(C)N(Cc1nc(-c2ccccc2)no1)C(=O)c1ccc2c(c1)OCO2 | 93.2
OCCN1CCN(c2nc(-c3ccccc3)c3cc(Cl)ccc3n2)CC1 | 94.9
O=C(O)c1cccc2cccc(S(=O)c3ccccc3)c12 (stereo not given) | 94.7
O=C(Oc1ccccc1-c1nnco1)c1ccc(C(F)(F)F)cc1 | 85.6
COc1ccc(N(C(=O)Cc2ccc(OC)c(OC)c2)C2C=CS(=O)(=O)C2)cc1 (stereo not given) | 98.2
O=C(Nc1ccc2c(c1)OCC1CCCN21)C1=Cc2ccccc2OC1 (stereo not given) | 96.2
C/C(COc1ccc(-c2csnn2)cc1)=N\NC(N)=S | 106.6
Cc1ccc(S(=O)(=O)c2c(Cl)sc(=O)n2C)cc1 | 88.5
O=C(Nc1ccc(Br)cn1)c1ccccc1 | 98.2
COC(=O)c1ccc(C)c(NC(=O)C(C)Sc2ccccc2)c1 (stereo not given) | 95.7
O=C(NCC(=O)c1cccs1)c1ccc(-c2ccccc2F)o1 | 90.4
CCN=C1S/C(=C\c2ccc(N3CCOCC3)cc2C)C(=O)N1CC | 95.9
CC(C)CC(=O)NC(=S)Nc1ccc(S(=O)(=O)N=C(N)N)cc1 | 82.5
Cc1cccc(CSC2=NCCN2C(=O)c2cccs2)c1 | 94.1
OCCCNc1ncnc2oc(-c3ccccc3)c(-c3ccccc3)c12 | 95.8
O=C(OCc1ccco1)c1ccc(Cl)cc1 | 92.8
CN1CC[C@]2(c3cccc(O)c3)Cc3nc4ccccc4cc3C[C@H]2C1 | 96.6
COC(=O)c1ccccc1NC(=O)C(C)C | 91.9
Nc1nc(OCC(F)(F)F)nc(OCC(F)(F)F)n1 | 86.4
COCc1cc(C)nc(SC)c1C#N | 89.5
CCN1C/C(=N\S(=O)(=O)c2ccccc2)N(CC)C1=O | 98.6
CN1C=NS(=O)(=O)c2ccccc21 | 90.4
OCC(CO)(CO)N=Cc1c(O)ccc2ccccc12 | 97.3
CC(=O)Nc1ccc(S(=O)(=O)Nc2nccc(C3Cc4ccccc4C(=O)O3)n2)cc1 (stereo not given) | 103.5

More structures.
SMILES | RVFV N-RNA FP
CC(=O)SCC(Cc1ccccc1)C(=O)NCC(=O)OCc1ccccc1 (stereo not given) | 97.5&93.1
O=C(Cc1c(F)cccc1Cl)N1CCC2(CC1)OCCO2 | 90.0
CSc1nc(N)nc(SC2C=CCCC2)c1C#N (stereo not given) | 88.4
NNC(=O)c1ccc(Oc2cccc(C(F)(F)F)c2)nc1 | 93.7
C#CCN(C)[C@H](C)Cc1ccccc1 | 94.4&96.7&100.1
CN(C)/C=C/C(=O)c1cccc(C(F)(F)F)c1 | 99.9
COc1cc(S(=O)(=O)n2nnc3ccccc32)c(OC)cc1C | 100.9
CC(=O)OC1CCC2CC1CCC2OC(C)=O (stereo not given) | 99.4
O=C(c1ccco1)N1CCN=C1SCc1ccccc1 | 95.1
NC(=O)COC(=O)c1cccc2c1-c1ccccc1C2=O | 96.8
O=C(CNc1ccc(C(=O)O)cc1)NCc1ccc2c(c1)OCO2 | 97.4
COc1ccc(OCCNC(=O)N2CCOCC2)cc1 | 104.0
CC(C)(C)C(=O)CON1C(=O)c2ccccc2C1=O | 84.9
N#CCCS(=O)(=O)c1ccc(-c2ccc(S(=O)(=O)CCC#N)cc2)cc1 | 90.9
CCC(C)c1ccccc1NC(=O)N(C)C (stereo not given) | 88.1
Cc1[nH]c2cc(C(=O)O)ccc2c1CC(=O)O | 101.0
CN1CCN(C2=Nc3ccccc3Oc3ccc(Cl)cc32)CC1 | 94.9&99.1
Cc1cc(NC(=O)NNc2ccccc2)no1 | 90.1
CC(C)(C)c1cc(-c2nc(-c3ccccc3)no2)n(Cc2ccccc2)n1 | 109.1
CCOc1ccc(S(=O)(=O)N2CCCC(C(=O)N3CCN(c4ccccc4)CC3)C2)cc1 (stereo not given) | 96.0
Cn1c(N)c(S(=O)(=O)N2CCc3ccccc32)c(=O)n(C)c1=O | 97.8
O=C(CCSc1ccccc1)N1CCOCC1 | 101.6
C#CCSc1nccc(-c2cc(-c3ccc(Cl)cc3)no2)n1 | 92.8
CCOC(=O)c1ccc(NC(=O)CSc2nc(NC(=O)c3ccccc3)c3c(C)c(C)oc3n2)cc1 | 95.1
O=S(=O)(Cc1ccccc1)NNc1ccccc1 | 104.8

Other entries.
SMILES | RVFV N-RNA FP
COc1cc(CO)cc(Cl)c1OCC(N)=O | 93.4
OCn1c2ccccc2c2cc(Cl)ccc21 | 96.7
O=C(CO/N=C\c1ccccc1)Nc1ccccc1C(=O)O | 92.0
O=C(OC(c1ccco1)c1nccc2ccccc12)c1ccccc1 (stereo not given) | 95.1
O=C(c1cnc2n(c1=O)CCS2)N1CCN(C(c2ccccc2)c2ccc(Cl)cc2)CC1 (stereo not given) | 99.7
COCCNC(=O)c1ccccc1NC(=O)c1ccc(F)cc1 | 100.2
Cc1cc(C)cc(Nc2ncnc3nc[nH]c23)c1 | 92.3
O=C(NOCC1CC1)c1cc(Br)c(F)c(F)c1Nc1ccc(I)cc1Cl | 107.4
C=CCNC(=O)Cc1ccccc1OC | 98.1
O=c1[nH]c(=O)n([C@H]2C[C@H](O)[C@@H](CO)O2)cc1F | 94.2
CNC(=O)O/N=C/c1nn(C)cc1Br | 94.8
Cc1ccccc1NC(=O)c1ccc2nc(C)c(C)nc2c1 | 92.2
CCNS(=O)(=O)c1ccc(Br)c2ccccc12 | 92.4
CCOC(=O)c1cnc2c(cnn2CC)c1NN=C(C)C | 89.5&98.3
CC(C)CNc1nc(=S)nc(N(C)C)[nH]1 | 112.0
COc1cc(C(CC(=O)O)CC(=O)Nc2ccc(C)cc2)cc(OC)c1OC (stereo not given) | 86.9
COc1ccc(N2CC(C(=O)Oc3coc(CSc4ncccn4)cc3=O)CC2=O)cc1 (stereo not given) | 102.3
Cn1nc(C(F)(F)F)cc1-c1ccc(C=C(C#N)C#N)s1 | 94.8
CC(=C\C(=O)O)/C(=C/c1ccccc1)C(=O)O | 97.5
N#Cc1cccc(C#N)c1Oc1ccc(S(=O)(=O)N2CCCCC2)cc1 | 98.4
CC(C)(C)C(=O)Oc1ccc(Br)cc1 | 110.5

In another format: two of the compounds above
smiles	RVFV N-RNA FP
O=C(c1cnc2n(c1=O)CCS2)N1CCN(C(c2ccccc2)c2ccc(Cl)cc2)CC1 (stereo not given)	99.7
COCCNC(=O)c1ccccc1NC(=O)c1ccc(F)cc1	100.2
